CSC inhib – blocks cancer stem cells; AID 2717; cancer stem cell-like cells viability, luminescence; inhibition, % at 7.5 µM; 1.1% of 300,000 active;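 active = mean at 75% or more and at least half the replicates too; inconclusive = mean and replicates disagree; tested in HMLE shEcad cells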;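 note: 0% = median of negative and 100% = median of positive control wells; the first replicate is given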
MT1-MMP act inh – blocks activation of human MT1-MMP; P50281; HT1080 RFP-PRO-GFP cells, GFP/RFP ratio fluorescence, overnight; percent of plate control window, DMSO zero; GFP/RFP ratio change, % at 20 µM; 0.061% of 360,000 active;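 active = GFP/RFP ratio change of at least 30% with cell ATP level not reduced by more than half and red fluorescence within 50% of control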; note: strong numbers were not always called active
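Test system: HT1080 cells expressing an RFP-PRO-GFP fluorescent reporter construct / Compound dosing: single-point 20 µM compound, 1% DMSO / Schedule: cells overnight before dosing, compound overnight, 37 °C, 5% CO2 / Evaluation: GFP/RFP fluorescence ratio / Control set: DMSO and RFP-L50D-GFP cell wells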
HIV Env fusion – HIV envelope-mediated fusion inhibition. inhibition, % at 12.3 µM. AID 651610. 1.1% of 360,000 active. HeLa-JRFL Env/CEM21 cell fusion, luciferase;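 active = mean replicate inhibition score of at least 50 and every replicate individually at or above 50; inconclusive = only one of the two criteria met; inactive = mean below 50 and not all replicates reaching 50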;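 note: 0% = plate neutral controls and 100% = maraviroc near 300 nM; one replicate is shown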
eIF4H FP inh – inhibitors of RNA binding by human eIF4H | eIF4H fluorescence polarization binding assay | 0.94% of 290,000 active | inhibition, % at 35 µM;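 active = 50% or more with normal probe brightness, or confirmed in later tests; inconclusive = above 50% with abnormal brightness, or retests that disagree; inactive = below 50% or failed in later tests; about a fifth of its hits are not listed in these tables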;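 note: calls also rest on retests at 20 µM and on dose response follow-up; 0% = protein and probe with vehicle and 100% = probe without protein; strong numbers were not always called active; many hits fall short of the cut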
PABP polyA inh – blocks human PABP binding to poly(A) RNA | P11940 | fluorescence polarization | inhibition, % at 35 µM | 1% of 290,000 active | AID 2014;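 active = 50% or more with normal probe brightness, or confirmed in later tests; inconclusive = above 50% with abnormal brightness, or retests that disagree; inactive = below 50% or failed in later tests; about a fifth of its hits are not listed in these tables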;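 note: calls also rest on retests at 20 µM and on dose response follow-up; controls were probe without protein and protein plus probe with vehicle; some compounds called inactive have numbers as strong as hits; many hits fall short of the cut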
Yeast UUG start – yeast start codon fidelity modulation. activity score, % at 18.7 µM. S. cerevisiae UUG-firefly luciferase reporter, luminescence/redox ratio. 0.13% of 350,000 active;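 active = replicate mean at a twofold rise or more, about +100% in these data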;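 note: firefly luciferase made from a UUG start codon reports start codon fidelity; reporter light over untreated wells divided by growth signal over untreated wells; some hits fall short of that in this replicate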
Rce1 inhib – blocks yeast Ras-converting enzyme. 0.27% of 290,000 active. yeast membranes, quenched prenylated peptide cleavage fluorescence. calls only. Q03530;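 active = fall in fluorescence gain of 50% or more versus controls, with final raw signal at or below 3038400; inconclusive = same 50% fall but final raw signal above 3038400; inactive = fall in fluorescence gain under 50%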;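 note: plate controls were neutral control wells for no effect and wells lacking membranes for full effect; tested at 10 µM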
Target sequence (Q03530 whole entry, looked up): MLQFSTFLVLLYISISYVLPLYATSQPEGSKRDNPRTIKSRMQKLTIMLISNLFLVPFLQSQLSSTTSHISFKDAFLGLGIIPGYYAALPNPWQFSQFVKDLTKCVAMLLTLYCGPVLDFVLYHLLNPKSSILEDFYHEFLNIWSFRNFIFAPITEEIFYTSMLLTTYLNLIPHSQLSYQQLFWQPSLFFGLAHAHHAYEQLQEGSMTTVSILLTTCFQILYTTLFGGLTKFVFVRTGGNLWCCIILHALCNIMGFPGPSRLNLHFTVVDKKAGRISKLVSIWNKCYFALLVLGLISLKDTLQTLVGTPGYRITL
eIF4H FP inh retest – recorded beside eIF4H FP inh, whose call it bears; inhibition, %; compound at 20 µM; confirmation average;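 mean of two retest wells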
PABP polyA inh retest – recorded beside PABP polyA inh, whose call it bears; inhibition, %; compound at 20 µM; confirmation repeats;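 mean of two retest wells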
MT1-MMP act inh RFP – second read-out of MT1-MMP act inh, no call of its own (marks repeat the call); RFP signal change, %; measured here: RFP expression control read;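 0 = vehicle wells; hits needed this value within 50% of zero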
* = called active by the depositor; i = inactive; ? = inconclusive; . = no result given; & = joins results of further samples. The list is partial; the hit share may differ from the screen's.

SMILES | CSC inhib | MT1-MMP act inh | MT1-MMP act inh RFP | HIV Env fusion | eIF4H FP inh | PABP polyA inh | Yeast UUG start | Rce1 inhib | others
CN(C)S(=O)(=O)c1ccc2c(c1)C(=NNC(N)=O)c1cc(S(=O)(=O)N(C)C)ccc1-2 | 1.1 | 0.2 | 1.6 | 12.4 | 1.0 | -6.1 | -9.8 | i
c1ccc(-c2cnnc3ccccc23)cc1 | 4.5 | 5.1 | 0.3 | -10.6 | . | . | -16.3 | i
Cc1ccc(NC(=O)COc2ccc(/C=C3/NC(=O)NC3=O)cc2)cc1 | -4.0 | 0.9 | -0.6 | . | 31.0 | 6.1 | -6.6 | i
COc1ccc(OC)c(S(=O)(=O)N2CCC(C(=O)Nc3cccc(C(F)(F)F)c3)CC2)c1 | 2.5 | 6.7 | -9.4 | . | -5.0 | -1.7 | -6.1 | i
Cc1ccc(CN2CCC(c3nc4ccc(Cl)cc4[nH]3)CC2)cc1 | 17.5 | -18.9 | -10.3 | . | -3.4 | -11.2 | -11.1 | i
O=C(NCCCn1ccnc1)c1ccc(Cl)c(S(=O)(=O)N2CCOCC2)c1 | 4.3 | 1.6 | 4.3 | . | -11.4 | -6.6 | -6.7 | i
S=c1[nH]nc(Cc2ccc(Cl)cc2)o1 | -8.4 | 1.2 | 6.9 | 4.7 | -8.1 | 1.3 | . | i
CC(=O)Oc1ccccc1C(=O)OCCN=C1NS(=O)(=O)c2ccccc21 | -4.4 | -4.4 | -2.5 | -5.4 | -4.3 | 1.5 | -5.2 | i
CCOc1ccc(N(CC(=O)OC)S(=O)(=O)c2ccc3c(c2)n(C)c(=O)c(=O)n3C)cc1 | 1.6 | 0.6 | 7.3 | -16.7 | -8.4 | 3.5 | -1.4 | i
O=C(Nc1ccc(Cl)c(-c2nc3ccccc3[nH]2)c1)c1cccnc1 | 5.7 | -5.7 | -2.4 | 36.4 | -5.2 | 1.1 | -13.7 | i

Reprinted from the part before: 3 entries; new compounds follow.
SMILES | CSC inhib | MT1-MMP act inh | MT1-MMP act inh RFP | HIV Env fusion | eIF4H FP inh | PABP polyA inh | Yeast UUG start | Rce1 inhib | others
CC(=O)Oc1ccccc1C(=O)OCCN=C1NS(=O)(=O)c2ccccc21 | -4.4 | -4.4 | -2.5 | -5.4 | -4.3 | 1.5 | -5.2 | i
CCOc1ccc(N(CC(=O)OC)S(=O)(=O)c2ccc3c(c2)n(C)c(=O)c(=O)n3C)cc1 | 1.6 | 0.6 | 7.3 | -16.7 | -8.4 | 3.5 | -1.4 | i
O=C(Nc1ccc(Cl)c(-c2nc3ccccc3[nH]2)c1)c1cccnc1 | 5.7 | -5.7 | -2.4 | 36.4 | -5.2 | 1.1 | -13.7 | i
Cc1cc(SC(C)C(=O)O)nc2ccccc12 (configuration not stated) | -9.6 | 0.1 | -1.4 | -22.9 | -3.1 | 1.1 | . | i
Cc1cc(F)ccc1NC(=O)c1cc(S(=O)(=O)N2CCc3ccccc32)cn1C | 2.6 | -0.9 | -12.1 | 27.6 | 31.6 | 5.0 | 7.5 | i
CC(C)c1nnc(NC(=O)c2cc3ccccc3o2)s1 | 2.2 | 3.5 | 0.6 | -55.1 | 77.4 | 4.9 | -20.6 | i | eIF4H FP inh retest=-3.5;PABP polyA inh retest=15.8
CCOC(=O)Nc1ccc2c(c1)N(C(=O)OCCN(C)C)c1ccccc1CC2 | -19.7&-17.6 | -3.0&-0.6 | -0.1&1.9 | 8.7&-10.6 | -8.2&-3.5 | -21.5&3.5 | -21.0&4.6 | i
COc1ccccc1CNC(=O)C1CCCN(S(=O)(=O)c2cccc3cccnc23)C1 (configuration not stated) | . | 0.5 | 0.1 | 14.0 | -8.2 | -9.0 | 5.9 | i
COc1cccc(C(=O)NCC2(c3ccccc3)CCCC2)c1OC | 47.9 | 5.9 | -8.0 | 16.0 | -4.0 | 14.5 | -8.2 | i
O=C1CC(NCc2ccncc2)C(=O)N1c1ccccc1 (configuration not stated) | -10.5 | 0.1 | 5.6 | . | -12.7 | -2.0 | . | i
COc1cccc(-c2nnn(CCc3nn[nH]n3)n2)c1 | -6.3 | 4.0 | 4.2 | -40.8 | 5.3 | 33.1 | . | i
COc1ccc(CSCC(=O)Nc2ccccc2SC)cc1 | 55.2 | -0.5 | -0.8 | 11.4 | 2.9 | 11.4 | . | i
O=C(Cn1c(=O)n(-c2ccccc2)c(=O)n1CC(=O)N1CCCCC1)N1CCCCC1 | 5.2 | 3.1 | 5.1 | 11.4 | 0.1 | -11.9 | -18.4 | i
CN1C(c2ccc(F)cc2)=CS/C1=C(/C#N)c1nnc(N2CCOCC2)n1-c1ccccc1 | 30.4 | 1.3 | -3.3 | 3.5 | -2.0 | -11.2 | . | i
N/C(Cc1cccc2ccccc12)=N\OC(=O)c1ccc2c(c1)OCO2 | . | 14.2 | 23.3 | -14.2 | -0.8 | -1.6 | -17.0 | i
COc1ccc(/C=N/NC(=O)CCn2nnc3ccccc32)cc1 | -13.8 | 1.7 | -0.6 | -0.1 | -2.6 | 10.1 | . | i
COc1ccc(/C=C/C(=O)c2cc(F)ccc2OC(=O)c2ccccc2OC)cc1OC | . | 21.9 | 0.7 | -217.8 | -2.1 | 0.1 | . | i
Oc1ccccc1C(=S)N1CCN(c2cccc(Cl)c2)CC1 | 24.2 | -1.3 | -1.1 | 2.8 | -0.5 | 9.0 | -8.6 | i
O=C(Cn1c(=O)[nH]c2ccccc2c1=O)N1CCN(Cc2ccc3c(c2)OCO3)CC1 | -11.4 | 9.7 | -13.9 | 7.9 | 36.3 | -6.5 | -16.9 | i
COc1ccccc1CNC(=O)C(=O)Nc1ccc(C(=O)N2CCC(C)CC2)cc1 | . | 2.2 | 0.3 | -3.4 | -7.7 | 3.5 | 9.7 | i
Cc1cc(=O)oc2cc(OCC(=O)N3CCN(C(=O)C4COc5ccccc5O4)CC3)ccc12 (configuration not stated) | 13.9 | 2.1 | -4.5 | -0.8 | 1.3 | 5.7 | -12.9 | i
COc1ccccc1NC(=O)CSc1nc(C)c2c(c1C#N)CCCC2 | 9.9 | 2.1 | -0.3 | -4.5 | 5.2 | -5.1 | -15.4 | i
O=C(NCc1cccs1)C1Cc2c(-c3ccc(Cl)cc3)ccnc2O1 (configuration not stated) | . | 6.0 | -7.2 | -158.9 | . | . | 5.9 | .
COC(=O)c1[nH]c2ccccc2c1NS(=O)(=O)c1ccc(F)c(C)c1 | -5.7 | 5.1 | -3.8 | -61.2 | -4.9 | -2.2 | -8.7 | i
O=C(O)/C=C/c1ccc2c(c1)OCCO2 | -5.4 | 9.9 | 17.3 | 9.9 | 11.3 | 14.0 | -25.0 | i
Cc1ccc(C(=O)N2CCN(c3ncnc4c(C)csc34)CC2)cc1 | -4.6 | 8.1 | -12.1 | -5.6 | -3.5 | -15.9 | -5.5 | i
CNS(=O)(=O)c1cccc(C(=O)OCC(=O)Nc2ccccc2OC(F)F)c1 | -6.4 | -12.3 | -4.8 | 38.6 | -0.3 | -0.4 | -16.6 | i
CCOc1ccc(C2Nc3ccccc3NC3=C2C(=O)CC(C)(C)C3)cc1OC (configuration not stated) | -4.9 | -2.9 | 2.4 | -2.2 | 25.3 | 22.7 | -7.4 | .
O=C(CN(C(=O)c1csnn1)c1ccccc1C(F)(F)F)NCc1ccccc1 | -7.4 | -8.2 | -4.0 | 3.7 | -6.0 | 7.7 | -11.0 | i
O=C1CN(C(=O)NCC(=O)N[C@@H](C(=O)O)c2ccccc2)c2ccccc2N1 | -1.4 | -2.3 | 3.0 | -0.1 | 3.1 | 4.9 | -6.0 | i
CCc1c(C)nc2c(OC)cccc2c1Cl | 1.6 | -1.3 | -0.9 | -7.0 | -3.9 | -6.3 | . | i
CC(NC(=O)c1ccc(Br)cc1)C(=O)NC1=NCCS1 (configuration not stated) | -7.8 | 0.6 | 7.1 | -27.1 | 5.3 | -9.2 | . | i
Cc1cccc(NC(=O)CCN2C(=O)C3C4C=CC(C4)C3C2=O)n1 (configuration not stated) | 19.0 | 2.0 | -0.5 | . | 1.3 | 7.9 | -16.3 | i
CCCOC(=O)c1ccc(OCC(O)Cn2c(C)nc3ccccc32)cc1 (configuration not stated) | . | 2.8 | -28.8 | ? | 3.7 | -4.9 | -7.2 | i
COc1ccc(CN2CCNC(=O)C2CC(=O)N(C)Cc2nccs2)cc1OC (configuration not stated) | -26.6 | -3.7 | 1.6 | -55.1 | 4.4 | -0.7 | -3.8 | i
CCOC(=O)Cn1c(C)c(Br)c(=O)c2cccc(C)c21 | 5.8 | 0.2 | 4.1 | -107.8 | 0.6 | -3.4 | -0.7 | i
CC1CN(c2nc3ccccc3nc2C(C#N)C(=O)NCc2ccc3c(c2)OCO3)CC(C)O1 (configuration not stated) | 14.5 | . | . | . | 88.9 | 94.5* | -1.8 | i | eIF4H FP inh retest=48.2;PABP polyA inh retest=79.5*
O=C(NC12CC3CC(CC(C3)C1)C2)N1CCN(c2ccccn2)CC1 | -10.4 | 6.5 | -2.8 | . | -6.7 | -2.9 | -0.3 | i
COC(=O)Nc1ccc(C)c(NC(=O)OC)c1 | -11.4 | 3.4 | 0.1 | . | -2.9 | -10.3 | -5.1 | i
COc1ccccc1NC(=O)CSc1nnc(CC(=O)Nc2ccccc2C)n1C | -2.3 | -5.6 | -4.7 | 8.8 | -1.9 | -4.7 | -4.5 | i
CCCCC(=O)N(c1ccc(OC)cc1)C1C=CS(=O)(=O)C1 (configuration not stated) | 0.8 | 3.7 | 0.6 | . | -4.5 | -5.4 | -11.7 | i
COc1cc(S(=O)(=O)N2CCOCC2)ccc1NC(=O)c1cc2c(s1)CCC2 | -2.5 | 0.6 | -2.9 | . | -12.1 | -12.0 | -7.8 | i
Cc1cc(Cl)cc(Br)c1OCCCCn1cncn1 | . | -4.2 | -5.1 | -233.0 | 6.8 | 30.5 | 11.9 | i
NNC(=O)[C@H](Cc1ccccc1)NC(=O)Nc1ccc2c(c1)OCCO2 | -2.4 | 0.3 | 2.4 | 7.6 | 0.7 | 2.7 | . | i
CCOC(=O)CSc1nnc(CNC(=O)c2cccs2)n1CCc1ccccc1 | -4.0 | 2.9 | 6.8 | . | -12.2 | 12.2 | . | i
CC1CCCC(NC(=O)CSc2nccn2C)C1C (configuration not stated) | 4.8 | 10.9 | -1.5 | . | 4.6 | 52.8 | -3.5 | i | eIF4H FP inh retest=47.9;PABP polyA inh retest=15.6
Cc1[nH]c(=O)[nH]c(=O)c1S(=O)(=O)N1CCOCC1 | -10.6 | -1.7 | -0.8 | 0.7 | 7.1 | 4.7 | -9.2 | i
CCOc1ccc(C(=O)NC(=S)Nc2ccc(N3CCCCC3)cc2)cc1[N+](=O)[O-] | 17.4 | 6.6 | -1.0 | 1.8 | 36.5 | 2.7 | . | i
N#CC(=C1CCCC1)c1nc(-c2ccccc2O)cs1 | -22.2 | -11.5 | -1.2 | . | -8.8 | 7.6 | -15.6 | i
C/C(=N\NC(=O)c1cccc(Br)c1)c1ccc(Br)cc1 | -12.6 | 4.7 | 2.0 | 9.7 | -6.3 | -10.9 | -3.9 | i
COc1ccc(CCNc2ccc(C(=O)O)cc2[N+](=O)[O-])cc1OC | -10.0 | 2.2 | 1.2 | -6.8 | -4.4 | -3.3 | 9.6 | i
CC(=O)Nc1ccc(NC(=O)c2ccc(Cl)nc2)cc1 | -8.6 | 0.6 | -2.9 | -28.3 | -5.7 | -1.2 | 11.2 | i
